Rango release inh = inhibition of RanGTP-driven Rango-importin beta dissociation. O95149+P62826. Biochemical FRET Rango-importin beta, RanGTP-induced dissociation. Potency, µM (highest dose often 46.1 µM), for inactives: top-dose activity change, negative = inhibition. actives 0.071% (n = 340,000). AID 540253; active means falling FRET ratio curve, often poorly fitted, with flat reads before Ran was added; inconclusive means other falling curves, or compound fluorescence or quenching; inactive means flat or rising ratio curve;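 further: potency means the concentration at half of the fitted maximal effect; % of control where 0% means no effect; nearly all actives have a fitted effect of over 45% in size; -100% = wells without RanGTP and RCC1; the record marks most hits as doubtful in a second field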
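FRET read at 45 min, room temperature: inhibitors block the CFP/YFP signal rise when RanGTP (0.6 uM Ran, 2 mM GTP, 0.2 uM RCC1) frees Rango (0.1 uM) from importin beta (0.25 uM). Pre-read after 5 min compound exposure flags interference.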
GLA inh pH 4.5 = blocks human alpha-galactosidase A at pH 4.5; activity change, negative = inhibition, % at 105 µM; AID 1467; 230,000 tested, under 10 active; purified enzyme, 4-MU-alpha-Gal fluorescence, pH 4.5; inconclusive = small, poorly fitted or top-dose-only inhibition, or a rising curve; inactive = flat fitted curve, though single readings scatter; no compound was filed as active;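 further: 0% = full activity with enzyme and -100% = basal without enzyme; dose as in the result columns while the protocol names 77 µM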
Target sequence (P06280 whole entry, looked up): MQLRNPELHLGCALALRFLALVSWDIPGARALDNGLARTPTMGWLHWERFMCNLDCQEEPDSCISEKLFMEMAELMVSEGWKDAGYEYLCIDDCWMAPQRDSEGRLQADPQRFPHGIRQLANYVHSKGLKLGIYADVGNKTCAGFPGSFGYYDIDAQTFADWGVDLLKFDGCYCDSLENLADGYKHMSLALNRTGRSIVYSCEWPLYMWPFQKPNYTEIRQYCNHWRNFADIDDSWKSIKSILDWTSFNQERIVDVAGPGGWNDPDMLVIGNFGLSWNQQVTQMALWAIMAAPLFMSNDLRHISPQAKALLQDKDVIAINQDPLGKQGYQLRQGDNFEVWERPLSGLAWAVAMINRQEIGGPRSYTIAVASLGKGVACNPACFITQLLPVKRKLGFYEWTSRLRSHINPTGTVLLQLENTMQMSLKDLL
Rango complex inh = inhibitors of Rango-importin beta complex formation | Potency, µM (titrated, usually from 92.2 µM), for the others: top-dose inhibition of complex formation | Rango CFP/YFP FRET sensor + importin beta, 45 min | actives 0.031% (n = 340,000) | Q14974 | AID 540263; active = rising FRET ratio curve, often small or poorly fitted; inconclusive = mostly compound fluorescence or quenching in the first reads; inactive = flat curves in all reads;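 further: potency means the concentration at half of the fitted maximal effect; 0% = DMSO wells and 100% = buffer wells lacking importin beta; nearly all actives have a fitted effect of over 15% in size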
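FRET biosensor (snurportin 1 IBB flanked by EYFP and cerulean), 50 nM, with compound 5 min, then 0.125 microM importin beta in PBS, 1 mM DTT, 0.02% Tween-20, 0.1% BSA. CFP/YFP ratio read after 45 min at room temperature; pre-read flags interference.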
miR-21 FLuc = raises the signal of a miR-21 reporter. 340,000 tested, under 10 active. HeLa miR-21 FLuc reporter, luciferase, 48 h. AID 2288. Potency, µM (series often up to 38.3 µM), without a hit: at the highest dose reporter change, positive = more light; active = well fitted rising curve with a large enough effect; inconclusive = small, poorly fitted or top-dose-only effect; inactive = no such curve, though single readings can be large or run the other way;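 further: % of control where 0% means no effect; miR-21 action dims this reporter so a rising signal means less miR-21 action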
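Luminescence from a firefly luciferase reporter carrying a miR-21 binding site downstream, stably expressed under a CMV promoter in HeLa cells that make miR-21 endogenously, reports miRNA modulation after 48 h compound exposure up to approximately 40uM final.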
An asterisk follows results filed as active; ? = inconclusive; nt = not tested or not shown.

Rango release inh	GLA inh pH 4.5	Rango complex inh	miR-21 FLuc	Structure
-20%	nt	-1.1%	nt	Cc1ccc2c(c1)C1CN(C)CCC1N2S(=O)(=O)c1ccc(C(C)C)cc1 (stereo unspecified)
-29%	8	1.8%	-49%	Cc1ccccc1C(=O)Nc1nnc(SC(C)C)s1
-4%	nt	5.0%	1%	Cc1cc(NC(=O)C2CC(=O)N(c3cccc(C)c3C)C2)no1 (stereo unspecified)
-7%	nt	-1.4%	-3%	CCN1CCN(C(c2cccs2)C(C)NC(=O)c2cccc(OC)c2)CC1 (stereo unspecified)
4%	nt	0.7%	-8%	CSc1ccc(/C=C/C(=O)N2CCN(c3ccccn3)CC2)cc1
-5%	-5	-2.1%	9%	CCCCN(C)CCNC(=O)c1ccc(Cn2c(=S)[nH]c3ccc(Br)cc3c2=O)cc1
-15%	nt	-3.5%	-9%	CC1Cc2cc(S(=O)(=O)N3CCC(C(N)=O)CC3)ccc2N1C(=O)C1CC1 (stereo unspecified)
10%	nt	-1.7%	nt	Cc1cc(C(=O)COC(=O)/C=C/c2cccc(Br)c2)c(C)n1C
0%	7	-3.8%	-3%	COc1ccc(OCC(O)CNC(=O)c2ccc(Br)cc2)cc1 (stereo unspecified)
6%	5	5.7%	-1%	C=CCN1C(=O)C(O)=C(C(C)=O)C1c1ccccc1F (stereo unspecified)
-11%	8	-0.1%	-22%	C/C(N)=C(/C#N)C(=O)COC(=O)c1ccccc1O
-1%	0	-0.1%	-9%	O=C(Cn1ccc2ccccc2c1=O)Nc1ccc2c(c1)OCO2
15%	10	-5.1%	-2%	CC(NC(=O)CN1CCCC1)C12CC3CC(CC(C3)C1)C2 (stereo unspecified)
6%	2	0.8%	-2%	CCc1nn(CC(=O)NCCCN(Cc2ccccc2)C(C)C)c(=O)c2cc3sccc3n12
-6%	nt	2.5%	20%	COc1ccc(N2C(=O)CC(N3CCN(c4ccc(Cl)cc4)CC3)C2=O)cc1 (stereo unspecified)
8%	24	-1.7%	-13%	COc1ccccc1-n1c(C)nc2cc(C(=O)NCc3ccc4c(c3)OCO4)ccc21
4%	3	-4.6%	-7%	CCN(C(=O)CSc1nc2ccccc2c(=O)n1-c1ccc(C)cc1)C1CCS(=O)(=O)C1 (stereo unspecified)
0%	-11	0.2%	-12%	CC(C)c1ccc(NC(=O)COC(=O)CCC(=O)c2cccs2)cc1
-10%	-10	-2.0%	-3%	CC(O)CNCCNCc1cccs1 (stereo unspecified)
-1%	nt	5.4%	2%	CCOc1ccccc1Nc1ncnc2ccc(Br)cc12
1%	nt	-3.3%	nt	CC(Nc1ccc(S(=O)(=O)N2CCN(C)CC2)cc1[N+](=O)[O-])c1ccccc1 (stereo unspecified)
2%	3	1.2%	0%	O=C(Nc1ccc(CN2CCCCC2)cc1)c1cc(Br)ccc1Cl
-17%	-12	-0.3%	-10%	COc1ccc(N2CCN(c3cc(C)c4ccccc4n3)CC2)cc1
-6%	8	-2.3%	-11%	CN1C(=O)COc2ccc(C(=O)c3ccccc3C(=O)O)cc21
11%	6	-3.0%	3%	CC1=NN(C(C#N)c2ccccc2O)C(C)(C)C1 (stereo unspecified)
14%	2	-0.3%	-15%	CC1CCC(N2CCN(c3ncccn3)CC2)CC1 (stereo unspecified)
7%	-9	-0.1%	9%	Cc1nn(C)c(Cl)c1NC(=O)OCc1ccc(Cl)cc1Cl
-11%	-10	-2.7%	1%	CCC(C)NC(=S)N1CCN(Cc2ccccc2)CC1 (stereo unspecified)
0%	nt	3.3%	nt	CCNC(=O)c1ccc(NC(=O)CC2SC(N3CCCCC3)=NC2=O)cc1 (stereo unspecified)
-5%	6	-1.3%	-15%	CC(C)CC(NC(N)=O)C(=O)NCc1ccccc1Cl (stereo unspecified)
-4%	7	-0.6%	1%	O=C(C1=C[C@H](c2coc3ccccc3c2=O)C[C@H](OCc2ccc(CO)cc2)O1)N1CCOCC1
-1%	nt	-4.5%	30%	CC(=O)Oc1ccc(N(C(C)=O)S(=O)(=O)c2ccc(Cl)cc2)c2ccccc12
-4%	nt	-4.7%	nt	Cc1cc(C)n(-c2nc3sc4c(c3c3nnc(SC(C)C)n23)CC(C)(C)OC4)n1
?	nt	15%	-2%	COC(=O)c1ccc(C)c(NS(=O)(=O)c2cn(C)nc2C)c1
12%	-2	1.3%	1%	Cc1cc(C)cc(NC(=O)N2CCCN(Cc3c(F)cccc3Cl)CC2)c1
13%	0	?	-7%	CCOC(=O)C1CCCN(c2c(Nc3ccc(OCC)cc3)c(=O)c2=O)C1 (stereo unspecified)
-14%	7	2.6%	-11%	Cc1cc(C)cc(OCC(=O)N/N=C\c2cn(C)nc2C)c1
11%	8	-4.5%	-2%	COc1cc(NC(=O)CCc2c(C)nc3nc(C)nn3c2C)cc(OC)c1
?	-20	-0.8%	-9%	O=C(CSc1nc(-c2ccccc2Cl)ns1)NCc1ccco1
25%	-4	0.1%	-3%	CCn1c(CNc2ccc(F)cc2)nnc1SCC#N
11%	1	-0.5%	-4%	CCSc1nnc(NC(=O)COc2ccc(Cl)cc2)s1
14%	nt	-2.8%	nt	O=C(COC(=O)c1cccnc1Cl)NC1CCCCCC1
0%	nt	-1.5%	nt	O=C(c1cnn(Cc2ccccc2)c1)N1CCN(S(=O)(=O)/C=C/c2ccccc2)CC1
1%	9	7.8%	-18%	CC(C)(C)C(=O)Nc1ccc(C(=O)NCc2cccnc2)cc1
7%	1	0.2%	-14%	O=C(Cc1ccc(Cl)cc1)NNC(=O)Nc1cccc2ccccc12
-12%	-4	?	10%	CCN(CC)C1=N/C(=C\c2ccc(OC)cc2)C(=O)N1c1ccccc1
12%	-8	-0.1%	-2%	C=CCNc1cc(C)oc(=O)c1C(=O)CCC
-1%	-1	-2.0%	-51%	O=C(Nc1ccc(NC(=O)C2CC2)nc1)c1cccs1
-9%	nt	-0.5%	nt	Cn1c(SCc2ccc(F)cc2Cl)nc2ccccc2c1=O
-14%	0	5.7%	1%	CN=C(Nc1cc(C)nn1-c1ccccc1)c1ccccc1
7%	nt	1.0%	-2%	CN(C)CCCNC(=O)c1cc(C(=O)c2c(Cl)cccc2Cl)c[nH]1
17%	3	-0.1%	-2%	COc1ccc(CCNC(=O)CN(C)S(=O)(=O)c2ccc(Br)s2)cc1OC
7%	-1	-7.6%	25%	COc1ccc(NC(=O)CSc2ccc3ccccc3c2)cc1S(=O)(=O)N1CCCCC1
-7%	nt	-0.1%	-12%	CC(C)c1ccc(-c2csc3nc[nH]c(=O)c23)cc1
-9%	6	0.9%	-6%	Cn1ccnc1SCC(=O)c1ccc([N+](=O)[O-])cc1
11%	1	9.5%	5%	O=C(Cc1cccs1)N(CC1CCCO1)C1(C(=O)NC2CCCC2)CCCCC1 (stereo unspecified)
7%	-1	3.5%	0%	Cc1cc(N(C)/N=C/c2ccccc2O)nc(-c2ccccc2O)n1
-6%	-13	-0.3%	-18%	CN(C)CCOCCOc1ccc(Cl)cc1C(C)(C)C
-8%	3	?	-3%	Cc1cc(C(F)F)n2nc(C(=O)O)nc2n1
0%	nt	0.1%	-5%	COc1ccccc1C(=O)Nc1ccc2c(c1)CCCN2C(=O)c1ccccc1

(continued)
Rango release inh	GLA inh pH 4.5	Rango complex inh	miR-21 FLuc	Structure
-10%	nt	0.2%	nt	COc1ccc(S(=O)(=O)N2CCC(C(=O)NC(c3nc4ccccc4[nH]3)C(C)C)CC2)cc1 (stereo unspecified)
-6%	nt	-0.2%	-6%	NS(=O)(=O)c1ccc(CCNC(=O)C2(S(=O)(=O)c3ccc(Cl)cc3)CC2)cc1
-6%	-12	-1.5%	20%	CCn1nc(C)cc1C(=O)Sc1cccc(Br)c1
-3%	-12	-1.1%	0%	Cc1ccc2cc(CN(Cc3ccco3)C(=O)NCc3ccccc3)c(=O)[nH]c2c1C
14%	-2	1.9%	-5%	Cc1nnc(SCCN2C(=O)c3ccccc3C2=O)[nH]c1=O
3%	2	-3.7%	-1%	C=C(C)CSc1nc2ccccc2c(=O)n1-c1c(C)n(C)n(-c2ccccc2)c1=O
-4%	4	0.9%	1%	CCc1nnc(NC(=O)CN2CCN(c3cccc(OC)c3)CC2)s1
-7%	1	11%	-19%	NC(=O)c1ccc(C(F)(F)F)n(Cc2ccccc2Cl)c1=O
?	nt	?	-17%	Cc1cc(OCC(=O)Nc2ccccn2)c2c(C)c(C)c(=O)oc2c1
0%	nt	-2.0%	2%	CCn1c(=O)c(C(=O)NNC(=O)c2ccc(Cl)cc2Cl)c(O)c2ccccc21
2%	-2	0.3%	?	Cc1ccc(NC(=O)c2cc(C)n(-c3ccccc3)c2C)cc1
-9%	3	-3.8%	-7%	CNC(=S)N/N=C(\C)c1cccc(C(F)(F)F)c1
-6%	3	-2.0%	-42%	COc1ccc(NC(=O)c2ccccc2[N+](=O)[O-])cc1
-2%	-3	5.2%	27%	C=C(C)COc1ccc(-c2[nH]ncc2-c2ccccc2OC)c(O)c1
-3%	-26	4.1%	-1%	O=C(c1coc2ccccc2c1=O)N1CCN(c2cccc(C(F)(F)F)c2)CC1
-17%	nt	-0.6%	-32%	CCc1ccc(NC(=O)CCc2c(C)nn(-c3ccc(N4CCOCC4)nn3)c2C)cc1
0%	1	1.4%	-1%	CCOC(=O)CNC(=S)N(Cc1ccccc1)Cc1cccnc1
4%	nt	2.4%	-6%	CCN(Cc1ccncc1)C(=O)c1cc(COc2c(F)cccc2F)on1
10%	-4	0.1%	10%	CCCN(CCC)S(=O)(=O)c1ccc(C(=O)NNC(=O)c2cc(OC)c(OC)c(OC)c2)cc1
13%	nt	0.3%	-53%	Cc1ccc(NC(=O)c2sc(N)nc2C)cc1
1%	3	0.5%	2%	COc1ccc(NC(=O)CSc2nnc(N)n2CC(=O)Nc2ccc(OC)cc2)cc1
0%	nt	-7.0%	nt	Nc1cc(C(=O)OCC(=O)NNC(=O)c2ccccc2F)ccc1Cl
10%	4	-1.4%	0%	OCCN(CCO)CC(O)CN(c1ccccc1)c1ccccc1 (stereo unspecified)
-1%	2	-0.3%	-8%	CCCC(NC(=O)c1ccco1)c1nc2ccccc2[nH]1 (stereo unspecified)
-1%	-10	9.4%	3%	O=C1CCC(NC(=O)c2ccccc2)C(=O)N1 (stereo unspecified)
-5%	-12	-0.4%	-5%	COC(=O)c1nnn(-c2nonc2N)c1CSc1ccccn1
-18%	nt	3.3%	nt	CC(=O)N1CCCc2ccc(NS(=O)(=O)c3ccccc3)cc21
-13%	-8	2.9%	-6%	O=C(Nc1ccccc1)Nc1ccc(Oc2ncnc3cc(Cl)ccc23)nc1
-3%	nt	8.4%	nt	Nc1nc(Sc2ccc([N+](=O)[O-])c3nonc23)c2[nH]cnc2n1
4%	4	-2.9%	0%	O=C(c1ccccc1)C1CCN(CC(=O)N2CCN(c3ccccc3)CC2)CC1
-11%	nt	-0.3%	nt	COC(=O)Cc1coc2cc(OC)ccc12

Reprinted at random: six compounds from above.
Rango release inh	GLA inh pH 4.5	Rango complex inh	miR-21 FLuc	Structure
-6%	8	-2.3%	-11%	CN1C(=O)COc2ccc(C(=O)c3ccccc3C(=O)O)cc21
-10%	-10	-2.0%	-3%	CC(O)CNCCNCc1cccs1 (stereo unspecified)
3%	2	-3.7%	-1%	C=C(C)CSc1nc2ccccc2c(=O)n1-c1c(C)n(C)n(-c2ccccc2)c1=O
11%	8	-4.5%	-2%	COc1cc(NC(=O)CCc2c(C)nc3nc(C)nn3c2C)cc(OC)c1
1%	3	0.5%	2%	COc1ccc(NC(=O)CSc2nnc(N)n2CC(=O)Nc2ccc(OC)cc2)cc1
7%	-1	3.5%	0%	Cc1cc(N(C)/N=C/c2ccccc2O)nc(-c2ccccc2O)n1

An excerpt; the hit share may differ from the screen's.
